LANA-H2B inh – blocks KSHV LANA binding to histone H2A/H2B; Q9QR71; cell-free LANA-H2A/H2B peptide, fluorescence polarization; inhibition, % (concentration not given with the values); 320,000 tested, 0.6% active; AID 2629; in the data active = inhibition mostly above about 10%, no sharp cut-off; inactive = mostly below about 6.7%;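 also: stock transfer was 7.5 nL into about 10 µL; 0% = median of vehicle wells and 100% = median of positive control wells; one replicate is shown; the record names a cut of 25% in any replicate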
Ecoli rRNA inh – selective bacterial rRNA inhibition in E. coli | E. coli WT GFP vs humanized-ribosome RFP mutants, fluorescence, 24 h; hits give low values; DMSO median 0, no signal -100 | GFP signal change (wild-type ribosome), % (test concentration not listed) | 350,000 tested, 1.6% active | AID 720706;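 active = significant combined selectivity score with lowered wild-type GFP, culture density cut under 30%, mutant RFP and density less affected; inactive = any of these conditions unmet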; also: one replicate is shown; some compounds called inactive have numbers as strong as hits
ALR inh – human ALR oxidase inhibition via reduced H2O2. P55789. purified ALR, DTT oxidation, H2O2 HRP-luminol luminescence. inhibition, % (test concentration not listed). 290,000 tested, 3.8% active;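 active = mean and each replicate at 75% or more; inconclusive = only one of the two met; inactive = neither met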;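 also: stock transfer was 7.5 nL into about 7.5 µL; 0% = neutral wells and 100% = wells with inactivated enzyme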
Target sequence (P55789 whole entry, looked up): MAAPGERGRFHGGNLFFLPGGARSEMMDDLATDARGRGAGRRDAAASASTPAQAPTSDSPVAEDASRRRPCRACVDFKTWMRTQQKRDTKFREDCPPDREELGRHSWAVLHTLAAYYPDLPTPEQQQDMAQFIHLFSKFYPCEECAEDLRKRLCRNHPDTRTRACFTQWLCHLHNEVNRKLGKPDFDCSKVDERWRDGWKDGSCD
T cruzi inh – blocks replication of Trypanosoma cruzi. T. cruzi beta-gal in NIH3T3, luminescence, 90 h. inhibition, % (test concentration not listed). 300,000 tested, 1.4% active. AID 1885;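 active = mean inhibition across valid replicates above about 55%, limit read from the data; inconclusive = mean below that limit but half or more replicates reach it; inactive = mean below it, under half of replicates reach it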;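 also: signal also drops with host cell toxicity which is not excluded here; 0% = plate median of DMSO wells and 100% = zero luminescence signal; higher percent means less beta-gal luminescence so fewer parasites; stock transfer was 50 nL into about 50 µL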
Calb FLC – C. albicans growth modulation with fluconazole | C. albicans CaCi-2 (fluconazole-resistant clinical isolate) + fluconazole, Alamar Blue growth, 48 h | 300,000 tested, 0.57% active | AID 1979 | growth inhibition, % (test concentration not listed);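 active = most replicates above 75%; inconclusive = exactly half above 75%; inactive = most below 75%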;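 also: all wells also contain fluconazole at 8 µg/ml as a sub-toxic cotreatment; 0% = median of DMSO wells and 100% = median of geldanamycin control wells; wells of about 8 µL received 7.5 nL stock; the first replicate is given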
Beta apoptosis – beta cell apoptosis inhibition; INS-1E cytokine-induced death, ATP luminescence, 48 h; percent of positive-control rescue, neutral wells zero; protection from apoptosis, % (concentration not given with the values); 300,000 tested, 0.8% active; AID 435005;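 active = all replicates at 75% or more, or half of them and the mean; inconclusive = half reach 75% but not the mean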;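 also: 0% = cytokine-treated negative control wells and 100% = positive control rescue; higher means more ATP so stronger rescue from cytokine killing; wells of about 40 µL received 100 nL stock; the first replicate is given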
Beta2AR agonist – activates human beta-2 adrenergic receptor causing internalization; Am2.2-beta2AR cells, FAP receptor internalization, flow cytometry; reference of the scale not given here; response, % (test concentration not listed); 340,000 tested, 0.43% active; AID 504454;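 active = response above a set limit, near 3 SD of response in nonfluorescent compounds, cut at about 42% in these data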;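 also: stock transfer was 100 nL into about 11 µL; a reference agonist was the positive control; negative values mostly stem from fluorescent compounds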
Target sequence (P07550 whole entry, looked up): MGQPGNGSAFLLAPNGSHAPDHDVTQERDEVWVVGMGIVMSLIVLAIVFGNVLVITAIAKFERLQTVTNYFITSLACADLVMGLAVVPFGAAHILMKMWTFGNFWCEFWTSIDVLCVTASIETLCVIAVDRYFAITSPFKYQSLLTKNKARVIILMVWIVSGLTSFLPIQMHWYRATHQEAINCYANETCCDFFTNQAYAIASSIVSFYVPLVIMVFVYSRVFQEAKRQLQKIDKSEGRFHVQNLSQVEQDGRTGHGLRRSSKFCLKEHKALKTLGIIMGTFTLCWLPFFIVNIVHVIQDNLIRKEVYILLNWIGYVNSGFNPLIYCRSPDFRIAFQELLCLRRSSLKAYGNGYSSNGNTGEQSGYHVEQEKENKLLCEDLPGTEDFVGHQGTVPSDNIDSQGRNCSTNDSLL
A1 inh – inhibitors of the anti-apoptotic protein A1, read as caspase activation | MEF A1-2A-BIM cells, Caspase-Glo 3/7 luminescence, 3 h; percent of clofoctol response, vehicle zero | caspase activation, % (no concentration beside the values) | 330,000 tested, 0.066% active | AID 2462;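 active = over half of replicate activation scores above 10%, or exactly half above 10 with the replicate mean above 10; inconclusive = replicate mean below 10 yet half the replicates above 10; inactive = over half of replicates below 10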;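 also: wells of about 30 µL received 50 nL stock; many hits fall short of the cut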
Ecoli rRNA inh OD600 – recorded beside Ecoli rRNA inh, whose call it bears; OD600 change, %; measured here: OD600 growth;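 optical density of the mix in the first replicate; 0 = DMSO median and -100 = no signal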
Ecoli rRNA inh RFP – also measured in Ecoli rRNA inh; calls as there; RFP signal change, %; measured here: RFP humanized mutant strains;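 first replicate; 0 = DMSO median and -100 = no signal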
Starred values were filed as active, the others as inactive; u = inconclusive; x = no result given.

Fields: Ecoli rRNA inh RFP | Calb FLC | T cruzi inh | Ecoli rRNA inh OD600 | LANA-H2B inh | Beta apoptosis | Ecoli rRNA inh | Beta2AR agonist | ALR inh | A1 inh
COCCN1Cc2cccc(C(=O)N3CCN(c4ccccc4)CC3)c2C1=O
  x | 14.2 | -5.8 | x | 1.9 | -0.8 | x | -3.8 | 94.8* | -0.2
COc1ccccc1OCCN(C#N)c1nc(N(C)C)nc(N(C)C)n1
  -4.7 | 16.1 | -3.0 | -25.9 | -2.6 | -0.8 | -29.2 | -7.9 | 0.1 | 1.3
COc1ccc2nc(Sc3c([N+](=O)[O-])nc(C)n3Cc3ccccc3)[nH]c2c1
  x | 7.4 | 10.9 | x | 3.6 | -11.0 | x | x | 16.7 | 0.3
COc1ccc(Nc2nc(C)cc(C)c2C#N)cc1OC
  -2.1 | 5.8 | -1.0 | -2.7 | -1.1 | -1.6 | 6.0 | -6.0 | -24.4 | -0.4
CCOC(=O)C1CCCN(C2=C(NS(=O)(=O)c3ccc(Br)cc3)C(=O)c3ccccc3C2=O)C1 (stereo unspecified)
  1.6 | -5.6 | 12.7 | -16.5 | 1.4 | 34.6 | -9.7 | 3.5 | 5.1 | -0.2
NC(=O)CSc1nc2ccccc2c(=O)n1CCc1ccccc1
  2.7 | 0.4 | -10.1 | 5.6 | -2.9 | x | 16.5 | -13.3 | -1.7 | 0.6
COc1ccc(C2C(C#N)=C(C)NC3=C2C(=O)c2ccccc23)cc1 (stereo unspecified)
  -7.2 | -9.7 | 13.0 | -2.0 | 2.1 | 12.9 | -0.1 | -6.0 | 4.3 | 0.0
Cc1ccc2[nH]cc(C(=O)CN3CCN(c4ccccn4)CC3)c2c1
  x | 10.2 | 1.5 | x | 0.7 | -9.2 | x | 17.0 | 5.2 | 0.1
O=C(Nc1ccccc1Cl)c1cccc(NC(=O)C2CCCC2)c1
  2.1 | 7.6 | 0.0 | 2.2 | -2.7 | -0.9 | 4.5 | -5.5 | -5.4 | -0.8
NC(=O)COC(=O)c1cccc(S(=O)(=O)N2CCN(c3ccccc3)CC2)c1
  -1.6 | 7.0 | -7.6 | 3.2 | -2.9 | -3.4 | 5.4 | 3.7 | 0.9 | 0.6
COc1ccccc1S(=O)(=O)Cc1ccc(C(=O)N2CCN(c3cccc(Cl)c3)CC2)o1
  x | 30.5 | -4.3 | x | -7.3 | 15.5 | x | 6.2 | -2.2 | 2.2
O=C(OCC#CCSc1nnc(-c2ccc([N+](=O)[O-])cc2)o1)c1cccs1
  x | -7.8 | 2.4 | x | 3.6 | 5.5 | x | 6.9 | -5.7 | -0.2
COc1ccccc1CNC(=O)COC(=O)c1ccc(-n2cnnn2)cc1
  1.0 | 4.3 | 2.9 | -2.3 | -0.6 | -0.2 | -2.2 | -4.5 | 1.4 | 0.8
O=c1[nH]c(CCC2CCCC2)nc2ccccc12
  x | 1.2 | -14.5 | x | 0.4 | -1.0 | x | -6.3 | -1.1 | -0.2
CCCn1c2ccccc2c2nnc(SCC(=O)OC)nc21
  x | 1.0 | 6.0 | x | -0.2 | -8.5 | x | -5.2 | -10.2 | x
ClC(Cl)(Cl)c1nc(N/N=C/c2ccncc2)c2ccccc2n1
  2.9 | 40.5 | -12.7 | 26.2 | 1.6 | x | 12.9 | 8.7 | -5.1 | 0.1
NC(=O)CC(NC(=O)Cc1ccc(Cl)cc1)c1ccc(NC2CCCCCC2)c([N+](=O)[O-])c1 (stereo unspecified)
  x | 4.3 | 9.5 | x | 1.4 | -4.2 | x | 1.2 | x | 0.1
O=C(Nc1ccccc1Cl)c1ccccc1
  0.0 | -6.5 | -9.8 | -3.4 | -0.6 | -3.3 | 12.1 | 1.0 | -5.3 | -0.4
Cc1cc(C(=O)Nc2ccc3c(c2)OCO3)cs1
  x | -10.3 | -6.5 | x | 0.9 | 3.0 | x | 1.4 | 2.1 | -7.9
CSCCC(NC(=O)c1ccccc1)C(=O)NC1CCCC1 (stereo unspecified)
  0.8 | 1.9 | -15.2 | 10.6 | -2.8 | 1.4 | 17.2 | -11.7 | 8.1 | 0.9
O=C1CN(C(=O)c2cccc(F)c2)C(c2ccc(F)cc2)c2cc(F)ccc2N1 (stereo unspecified)
  -2.5 | 1.4 | 0.0 | 0.5 | -3.9 | -4.6 | -4.0 | 1.4 | -0.4 | 0.2
Cc1ccc(Cl)cc1NC(=O)N[C@@H](CC(C)C)C(=O)O
  -0.8 | -6.0 | -13.2 | 10.1 | 1.0 | -14.5 | 9.1 | 1.7 | x | -0.9
CN(Cc1ccccc1F)c1nc(-c2cccnc2)nc2ccccc12
  -14.4 | 0.0 | 48.3 | -79.2 | -1.4 | 7.9 | -56.0 | 79.7* | 1.3 | -0.2
Cc1ccc(OC(C)C(=O)Nc2ccc3c(c2)n(C)c(=O)n3C)cc1C (stereo unspecified)
  1.0 | -0.4 | -1.0 | -17.3 | 3.2 | 0.7 | -18.3 | -9.1 | -11.8 | 0.3
COc1ccc(N2CCN(C(CNC(=O)C(=O)NCC3CCCO3)c3ccco3)CC2)cc1 (stereo unspecified)
  x | -16.7 | 1.8 | x | -0.4 | 0.3 | x | 10.2 | 72.7 | 1.3
Cc1cc(C)nc(N/N=C2/CCSc3ccc(F)cc32)n1
  0.4 | 23.4 | -15.6 | -2.0 | 3.9 | 16.3 | -3.9 | 2.2 | -13.2 | -0.4
CC(=O)N1N=C(c2ccc(Cl)cc2)CC1c1ccc([N+](=O)[O-])cc1 (stereo unspecified)
  2.7 | -1.4 | -6.0 | 23.4 | -2.4 | 0.4 | 25.6 | -0.2 | -12.5 | 0.5
COc1ccc(NC(=O)C2=C(C)C(=O)OC23CCC(C)CC3)c(OC)c1 (stereo unspecified)
  -6.7 | -3.6 | 8.1 | 1.5 | -0.3 | -1.2 | 5.5 | -2.6 | x | 0.2
CCOC(=O)c1cnc2c(-c3ccc(Cl)cc3)cnn2c1C
  1.3 | u | -23.6 | 16.2 | 1.5 | -0.4 | 4.8 | -0.1 | -21.4 | -2.7
C=CCN1C(=S)CC(c2ccccc2)=Nc2ccccc21
  -20.0 | 12.2 | 8.6 | -39.1 | -2.9 | x | -21.8 | 0.7 | -4.5 | -0.2
CCC(C)(C)NC(=O)CN(Cc1ccco1)C(=O)CCC(=O)Nc1nccs1
  -1.3 | -4.8 | 10.2 | 11.2 | -3.4 | -1.1 | 4.2 | 1.8 | -3.0 | 0.5
Cc1c(Cl)cccc1NC(=S)N/N=C/c1ccccc1Cl
  x | 1.4 | -32.2 | x | 4.4 | 4.7 | x | x | 5.5 | 0.5
CCOC(=O)Oc1ccc2oc(C)c(C(=O)OCCOC)c2c1
  x | 14.1 | -0.4 | x | -3.6 | 3.3 | x | 1.6 | -15.2 | x
O=C(CSc1ccccc1)Nc1cc(S(=O)(=O)N2CCOCC2)ccc1N1CCOCC1
  -2.3 | -13.0 | -0.4 | -8.6 | -1.2 | 0.5 | -9.2 | -19.9 | x | -0.5
CCOC(=O)C1=C(COc2ccccc2)NC(=O)NC1c1cccc([N+](=O)[O-])c1 (stereo unspecified)
  8.5 | 7.4 | 13.6 | 11.0 | -4.5 | 6.6 | 2.4 | -18.4 | 0.7 | 0.0
CC(NC(=O)C1c2ccccc2Oc2ccccc21)C1CCCO1 (stereo unspecified)
  0.7 | -7.0 | 0.2 | 4.4 | 2.9 | -0.5 | 12.2 | -3.7 | 0.9 | 0.3
CN1CCN(C(=O)c2cc(Oc3c(F)c(F)c(F)c(F)c3F)cc(C(=O)N3CCN(C)CC3)c2)CC1
  1.9 | 13.2 | -13.0 | 3.8 | 1.0 | -3.4 | 10.3 | 4.0 | -3.7 | 0.7
CCOc1ccccc1NC(=O)C(Sc1nnnn1C)c1ccccc1 (stereo unspecified)
  0.8 | 0.2 | 2.2 | -8.0 | -0.6 | -8.8 | -11.6 | -4.5 | -10.2 | 0.8
Cc1c(O)c2c(=O)n(-c3ccccc3)c(-c3ccccc3)cc2oc1=O
  -2.7 | 18.5 | 6.9 | 12.1 | -0.3 | -2.8 | 2.2 | 2.3 | 1.3 | 0.0
COc1ccc(-c2coc3cc(OC4OC(CO)C(O)C(O)C4O)cc(O)c3c2=O)cc1 (stereo unspecified)
  0.3 | x | x | -9.5 | -4.6 | -1.0 | -5.7 | 2.8 | 31.2 | -2.7
COc1ccc(NC(=O)Cn2c(CCC(=O)O)ccc2-c2ccc(C)cc2)cc1
  8.3 | -3.0 | 1.7 | 3.0 | -1.8 | -9.8 | 3.6 | 1.7 | 5.6 | -0.1
CN(CCOc1ccc(Cl)cc1)C(=O)c1ccccc1SCC(=O)N1CCCC1
  1.4 | x | x | -7.7 | -16.2 | -5.3 | -5.6 | -10.0 | -5.2 | -0.6
CCOC(=O)/C(C#N)=C1/CCCCCN1C
  x | 1.3 | -1.6 | x | 0.2 | x | x | 3.5 | -8.5 | 0.0
Cc1ccc(Nc2nc(-c3c(C)n(C)n(-c4ccccc4)c3=O)c(C)s2)cc1
  x | 12.8 | -1.3 | x | -1.1 | -2.4 | x | 7.7 | x | -0.4
Cc1ccc(NC(=O)CN2C(=O)N/C(=C\c3ccco3)C2=O)cc1
  26.8 | x | x | 17.1 | 7.9 | -1.7 | 24.4 | -1.9 | -0.8 | 1.2
O=C(NC1CCCC1)c1cc(COc2ccc3ncccc3c2)on1
  x | 34.1 | 9.1 | x | -3.2 | 104.3* | x | -7.4 | -6.3 | 0.0
COc1ccc(Cc2nc(-c3ccccn3)no2)cc1OC
  0.2 | -4.1 | -7.1 | 10.8 | 1.9 | 4.7 | 10.2 | -4.1 | 1.7 | -0.1
COc1ccc(CCNC(=O)CCC(=O)N2CCN(S(=O)(=O)c3ccc(Cl)cc3)CC2)cc1OC
  x | -8.4 | -2.8 | x | 2.2 | 1.6 | x | 5.0 | -1.6 | 0.1
O=C(O)c1cc2nccc(-c3ccc(F)cc3)n2n1
  -0.6 | 21.4 | -7.4 | 10.4 | -1.6 | x | 14.8 | 6.7 | 2.6 | -0.2
c1ccc(-c2cc(NCCN3CCCCC3)c3ccccc3n2)cc1
  1.4 | 7.2 | 47.1 | 22.9 | 2.1 | x | 19.9 | -2.5 | x | -0.1
Cc1nc(Cl)c(C(=O)NC(=O)Nc2cccc(C(F)(F)F)c2)c(C)c1[N+](=O)[O-]
  x | 0.3 | 0.1 | x | -2.1 | 37.6 | x | 34.1 | -0.5 | 0.4
O=C1N/C(=C/c2ccc(Br)s2)C(=O)N1c1ccccc1
  -1.7 | -19.2 | -10.9 | 1.0 | 0.2 | -0.6 | -1.4 | -4.2 | -15.2 | -0.9
COc1cc2[nH]c(=O)n(CCCCCC(=O)N3CCN(c4ccccc4)CC3)c(=O)c2cc1OC
  x | u | 20.7 | x | -5.0 | -4.5 | x | 13.4 | 26.0 | -0.7
Cc1cc2n(n1)C(c1ccc(O)cc1)Nc1ccccc1-2 (stereo unspecified)
  x | 24.8 | -12.2 | x | -1.8 | 3.7 | x | 10.1 | 28.9 | -0.5
O=C1N=c2ccc(Br)cc2=C1c1sc(=S)n(NS(=O)(=O)c2ccccc2)c1O
  0.1 | 28.4 | -2.0 | -4.3 | 0.8 | -1.0 | -6.9 | 1.4 | x | 0.5

Compound activity deposited in PubChem BioAssay by several laboratories.

These rows are one share of the data (hit frequency here may not be typical).
